From PubChem BioAssay
HIV TAR-Tat = TAR RNA-Tat peptide displacers, HIV-1, primary screen, biochemical, FRET, FAM/TAMRA-labeled Tat; HIV-1 TAR RNA, Tat peptide displacement FRET; hits give high values; 0.6% of 100,000 active; z-score (test concentration not listed);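 also: score is relative to mean and SD of negative controls; some compounds called inactive have numbers as strong as hits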
CDC25B-CDK2 inh = primary biochemical HTRF screen for blockers of M-phase inducer phosphatase 2 binding to CDK2/cyclin A. HTRF CDC25B-CDK2/CyclinA binding, anti-His/anti-Flag; hits give high values. z-score (test concentration not listed). 0.72% of 94,000 active. P30305+P24941. AID 1259370, 2018;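 also: score is relative to mean and SD of negative controls; strong numbers were not always called active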
Numbers without * were called inactive; . = not tested or not shown; & = joins results of further samples.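 The calls were made as follows: active = z-score from 3 up in half or more of its runs; inactive = the rest.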

structure	HIV TAR-Tat	CDC25B-CDK2 inh
O=c1c2n[nH]c(=O)n2ccn1-c1ccc(Br)cc1	-0.06	-1.4
O=C(Nc1ccc(O)c(-c2nc3ccccc3s2)c1)c1ccc([N+](=O)[O-])s1	0.24	.
Cn1ncc2c(N3CCCC3)nc(NCCCO)nc21	0.53	.
CC1(C)CC(N2CCCCC2)=CC(=S)S1	.	-1.9
CCCc1nc(C)cc(N2CCC(Cc3ccccc3)CC2)n1	0.89	-0.64
Cc1ccc(N(C)NC(=O)Nc2ccc(Cl)cc2)nn1	.	0.63
CC1CCCC(NC(=O)CN(C)S(=O)(=O)c2cc(Br)cnc2N)C1C (stereo not drawn)	0.55	-1.6
CC(C)Oc1ccc(C2Nc3ccccc3NC3=C2C(=O)CC(C)(C)C3)cc1 (stereo not drawn)	0.42	-0.27

Five records drawn at random from those above:
structure	HIV TAR-Tat	CDC25B-CDK2 inh
CCCc1nc(C)cc(N2CCC(Cc3ccccc3)CC2)n1	0.89	-0.64
CC(C)Oc1ccc(C2Nc3ccccc3NC3=C2C(=O)CC(C)(C)C3)cc1 (stereo not drawn)	0.42	-0.27
O=C(Nc1ccc(O)c(-c2nc3ccccc3s2)c1)c1ccc([N+](=O)[O-])s1	0.24	.
Cn1ncc2c(N3CCCC3)nc(NCCCO)nc21	0.53	.
CC1(C)CC(N2CCCCC2)=CC(=S)S1	.	-1.9

Remaining list, next part.
structure	HIV TAR-Tat	CDC25B-CDK2 inh
Clc1ccc(C2C3=C(Nc4ncnn42)c2ccccc2OCC3)cc1 (stereo not drawn)	0.49	2.3
COc1ccc(CC(=O)NN2C(=O)CSCC2=O)cc1OC	.	-1.6
Nc1ccccc1SC(CC(=O)c1ccccc1)c1ccc(Cl)cc1 (stereo not drawn)	.	-0.41
Cc1csc(NC(=O)CSc2c(C(C)C)cnc3c2c(=O)n(C)c(=O)n3C)n1	0	.
CC(=O)N1CC(C)Sc2ccc(S(=O)(=O)NC3CCCCC3)cc21 (stereo not drawn)	2.2	.
CCCC(=O)Nc1ccccc1SCc1cc(=O)n2ccsc2n1	0.01	.
COc1ccc(C2CC(=O)N3CN(c4ccccc4OC)CSC3=C2C#N)cc1 (stereo not drawn)	-2.1	4.3*
CCCNC(=O)CCCn1nc(CC)n2c(cc3oc(C)cc32)c1=O	2.1	-1.6
O=C(CN1C(=O)c2ccc([N+](=O)[O-])cc2C1=O)Nc1ccccc1C(=O)O	.	-2.3
CCOC(=O)N1CCC(Nc2c(N(CC)CC)c(=O)c2=O)CC1	0.32	0.56
Cc1ccc(OCc2nc3c4c5c(sc4ncn3n2)CCCC5)cc1	0.83	-2.5
O=C(CCn1nc(-c2ccc(Cl)cc2)ccc1=O)N1CCN(c2ccc(F)cc2)CC1	.	-0.04
COC(=O)c1c(C)c2c(c(C)c1O)OC(=O)c1c(C)c(Cl)c(O)c(Cl)c1O2	1.9	.
COc1cc(N2CCn3c(nc4ccccc43)C2)ccc1NS(C)(=O)=O	-8	-1.4
CC(CCc1ccccc1)NC(=O)CC1(CC2=NS(=O)(=O)c3ccccc3N2)CCCC1 (stereo not drawn)	-1.5	.
COc1ccc2nc(-n3nc(C)c4c3NC(=O)CC4c3ccc(C(C)(C)C)s3)sc2c1 (stereo not drawn)	1.2	.
Cc1cc(S(=O)(=O)Nc2cc3c(cc2N2CCOCC2)n(C)c(=O)n3C)ccc1F	1	0.33
CSc1cccc(NS(=O)(=O)c2cc(-c3cnc(C4CC4)o3)ccc2C)c1	0.64	.
O=C(CN1C(=O)c2ccccc2S1(=O)=O)Nc1cccc(F)c1	.	-0.25
CC1CCN(c2oc(-c3ccc(S(=O)(=O)N4CCc5ccccc5C4)cc3)nc2C#N)CC1	-0.14	-0.51
Clc1ccc(CSc2nc3ccccc3[nH]2)cc1	-0.98	-1.6
Cc1cccc(Cl)c1NC(=S)NCCNC(=O)OC(C)(C)C	.	-1.8
O=C(CSc1nc2ccncc2[nH]1)NCCC1=CCCCC1	-1.8	-1.3
CCOC(=O)Cn1c(=O)c2c(nc3n2CCN3c2ccc(OC)cc2)n(C)c1=O	-0.85	-5
O=S(=O)(Cc1ccc(Cl)cc1)c1ccc(Cl)nn1	0.54	-0.58
O=C(NC1CCCCC1)c1cc(-c2ccccn2)nc2ccccc12	.	-1.1
O=C(CSc1nnc(COc2ccccc2)o1)N1CCCC1	0.72	0.49
COc1cccc(-c2ccnc3c(-c4ccccc4)c(C)nn23)c1	0.99	2.6
C=CCN(Cc1nc(-c2ccc(OC)c(OC)c2)no1)S(=O)(=O)c1ccc(Br)cc1	2.5	-1.9
CC1(C)CC(=O)C2=C(C1)Nc1[nH]c(=S)[nH]c(=O)c1C2c1cccs1 (stereo not drawn)	.	0.81
CN1CCN(C(=O)CN2C(=O)c3ccccc3Sc3ncccc32)CC1	3.9	.
CO/S(=N/S(=O)(=O)c1ccc(Cl)cc1)c1ccc([N+](=O)[O-])cc1 (stereo not drawn)	.	-2.5

Some of the entries so far, with each value named.
> O=C(NC1CCCCC1)c1cc(-c2ccccn2)nc2ccccc12
  HIV TAR-Tat: .
  CDC25B-CDK2 inh: -1.1
> O=C(CSc1nnc(COc2ccccc2)o1)N1CCCC1
  HIV TAR-Tat: 0.72
  CDC25B-CDK2 inh: 0.49
> COc1cccc(-c2ccnc3c(-c4ccccc4)c(C)nn23)c1
  HIV TAR-Tat: 0.99
  CDC25B-CDK2 inh: 2.6
> C=CCN(Cc1nc(-c2ccc(OC)c(OC)c2)no1)S(=O)(=O)c1ccc(Br)cc1
  HIV TAR-Tat: 2.5
  CDC25B-CDK2 inh: -1.9

The list continues:
structure	HIV TAR-Tat	CDC25B-CDK2 inh
CCCCCOc1ccc(OC(=O)Cn2cnc3sc4c(c3c2=O)CCCC4)cc1	1.2	-2.5
C[N+](C)(C)CCCCCC[N+](C)(C)C	0.84	-1.4&-1.9
CN(CC(=O)N1CCCC1)S(=O)(=O)c1cc2c(cc1Cl)NC(=O)CO2	0.93	.
Cc1ccc(C)c(NS(=O)(=O)c2ccc(-c3ccc(=O)[nH]n3)s2)c1	1.6	.
O=[N+]([O-])c1ccccc1NC1CCN(Cc2ccccc2)CC1	.	-0.63
CS(=O)(=O)N1CCc2cc(C(=O)N3CCOCC3)ccc21	1.1	-1.6
O=S(=O)(Nc1cccc(Oc2ccc(Cl)cc2)n1)c1ccc(F)cc1	.	-1.9
CCc1nn(CC(=O)N2CCN(c3ccc(F)cc3)CC2)c(=O)c2cc3sccc3n12	2.6	-0.68
CNC(=O)N1CCc2cc(S(=O)(=O)N3CCc4ccccc4C3)ccc21	0.1	.
CC1N=C2c3ccccc3N=C(SC(C)C(=O)NCc3ccccc3)N2C1=O (stereo not drawn)	-1.3	.
COc1cccc(OC)c1CN(C)C(=O)c1cnc(Oc2ccccc2)cc1C(F)(F)F	.	-0.42
O=C(O)CCC(=O)N1Cc2ccccc2Oc2ncccc21	1.1	0.05
CSc1nn(C)c2cnn(C)c(=O)c12	.	-2.4
c1cnc2c(-n3cnnn3)cccc2c1	0.73	-1.3
O=S(=O)(NCCC1=CCCCC1)c1ccc(N2CCCCS2(=O)=O)cc1	1.8	.
COCCCN1C(=O)c2oc3ccccc3c(=O)c2C12C(=O)N(C)c1ccccc12 (stereo not drawn)	2.3	-0.76

Individual results from the results shown:
COCCCN1C(=O)c2oc3ccccc3c(=O)c2C12C(=O)N(C)c1ccccc12 (stereo not drawn) in HIV TAR-Tat shows 2.3
CC1N=C2c3ccccc3N=C(SC(C)C(=O)NCc3ccccc3)N2C1=O (stereo not drawn) in HIV TAR-Tat shows -1.3
c1cnc2c(-n3cnnn3)cccc2c1 in HIV TAR-Tat shows 0.73

Next part.
structure	HIV TAR-Tat	CDC25B-CDK2 inh
Cn1nc(C(=O)Nc2cccc(F)c2)c2c1-c1ccsc1CC2	1.3	.
CCCCCC(=O)Nc1nc2nc(CCC)cc(=O)n2[nH]1	1.1	-1.2
COc1cc(CNCCCSc2nnnn2C)cc(Br)c1OC	1.2	0.13
CSc1ccc(N2C(=O)N3CCCN3C2c2ccc(C)cc2)cc1 (stereo not drawn)	-0.37	-1.9
O=C(O)c1nccnc1C(=O)Nc1ccc(Oc2cccc(C(F)(F)F)c2)nc1	.	0.55
O=C(NCCc1nc2ccccc2[nH]1)c1[nH]nc2c1CCc1ccccc1-2	8.9	.
CCN1CCN(S(=O)(=O)c2ccc3c(c2)N(C(C)=O)CCO3)CC1	1.3	-1.2
CCOc1ccc(N2CC(C#N)=C3c4cc(OC)c(OC)cc4CCN3C2)cc1	.	-1.4
CC1CCCN(c2nn3c(=O)c(C(=O)NC4CCCC4)cnc3s2)C1 (stereo not drawn)	1.2	.
O=C(NCc1ccc2c(c1)OCO2)c1cccc(Nc2nc3ccccc3n3nnnc23)c1	0.9	.
Fc1ccc(CNc2ncnc3c2cnn3-c2ccccc2)cc1	1.4	.
Cc1nn(-c2nc3ccccc3o2)c2c1C(c1cccc(Br)c1)CC(=O)N2 (stereo not drawn)	-0.11	.
O=C(O)CCC(=O)N1CCOc2ccccc21	2.5	.
Fc1cccc(Oc2ncnc3c2oc2ccccc23)c1	0.62	.
COc1ccc(Br)cc1C1N2CC3(C)CN1CC(c1ccccc1)(C2)C3=O (stereo not drawn)	3.1	-2.2
Cc1ccc(Cn2c(CO)cnc2SCc2cc(C)ccc2C)cc1	0.9	.

Later entries
Every second line gives: HIV TAR-Tat	CDC25B-CDK2 inh
> CC(C)Oc1ccc(C2CC(=O)NC3=C2C(=O)CCC3)cc1 (stereo not drawn)
  1.2	0.97
> Cc1nn(S(=O)(=O)c2ccc3c(c2)CCCC3)c(C)c1S(=O)(=O)N1CCOCC1
  1	.
> Clc1ccccc1CNc1cc(-c2ccccc2)nc2nncn12
  0.1	0.03
> COC(=O)c1ccc(OC(=O)CSc2nc3ccccc3s2)cc1
  -0.47	-1.5
> Cc1cc(C(=O)N2CCN(C(=O)C3CCCCC3)CC2)n[nH]1
  -0.95	.
> N#Cc1c(-n2ncnc2-c2cccnc2)sc2c1CCCCC2
  -2.9	1.8
> COc1cccc(CNc2nc3c(S(=O)(=O)c4ccccc4)nnn3c3ccccc23)c1
  0.94	-1.3
> Cc1nn(-c2ccccc2)nc1C(=O)Sc1ccccn1
  .	-0.58
> Cc1ccc(S(=O)(=O)NC(=O)Nc2cc(-c3ccc(Cl)cc3)nn2C)cc1
  .	-2.9
> Cc1ccc(S(=O)(=O)NC(=O)NCc2csc3ccc(Cl)cc23)cc1
  .	-0.57
> COc1cc(OC)cc(-c2nc(-c3cc4cccc(C)c4[nH]c3=O)no2)c1
  0.16	-1.8
> O=C(CSc1ccc2nnc(-c3ccccc3)n2n1)Nc1ccc(Br)cc1
  .	-3
> CC1CCCN(c2cc(NCCN(C)C)c3c4c(onc24)-c2ccccc2C3=O)C1 (stereo not drawn)
  2.5	-2.3
> CC1CCC(C(=O)NC(C(=O)NCCc2cnc[nH]2)C(C)C)CC1 (stereo not drawn)
  0.21	-0.97
> O=C1OCCCN=C(c2ccccc2)c2ccccc21
  .	-1.9
> C=CCN(c1ccccc1)c1c(-c2ccccc2)c(=O)c1=O
  0.5	.
> Cn1nc(C(=O)N(CCCN2CCOCC2)Cc2ccco2)c2c1-c1ccccc1OC2
  0.71	-1.6
> CCN(CC)CCN1CC(O)=C(c2nc3ccccc3[nH]2)C1=N
  1.8	0.34
> COc1ccccc1CN[C@H]1CS(=O)(=O)C[C@@H]1S(=O)(=O)c1ccc(F)cc1
  0.59	0.24
> CC1CCN(CCNc2ccc3cc(S(=O)(=O)N4CCCC4)ccc3n2)CC1
  2.5	.
> CCN(CC)S(=O)(=O)c1cccc2cc(C(=O)O)c(O)cc12
  0.97	-2
> O=c1oc(-c2ccccc2)nc2sc3c(c12)CCCC3
  0.75	-2.2
> Cc1ccc(S(=O)(=O)N2CCC(N)=N2)cc1
  .	-0.95
> O=C(Nc1ccccn1)Nc1cccs1
  0.86	3.4
> COc1ccc(-c2noc(NCC3CCCO3)n2)cc1 (stereo not drawn)
  -0.25	.
> CCCSCCCN1C(=O)c2cc3sccc3n2CC1(C)C(=O)NC1CCCCC1C (stereo not drawn)
  1.4	-1.6
> CC1=C(C(=O)OC2CCCCC2)C(c2ccc(F)c(F)c2)C2=C(CCCC2=O)N1 (stereo not drawn)
  -0.28	-3.6
> O=C(COc1ccccc1)OC1=CN(Cc2ccccc2)S(=O)(=O)c2ccccc21
  0.58	1.7
> CC(C)C1Cc2c(sc3nc(-c4ccccc4)n4cnnc4c23)CO1 (stereo not drawn)
  -0.06	-2.8
> CCOC(=O)c1[nH]c(C)c(C(=O)OCC)c1C
  1.8	-0.88
> Cc1cc(NCc2cccnc2)n2nc(C(F)(F)F)c(-c3ccccc3Cl)c2n1
  0.04	1.6
> COc1ccc(OCCNC(=O)c2nccnc2C(=O)O)cc1
  .	-2.4
> Cc1cn(C)c(CC(=O)NC2CC2)c1C(=O)O
  1.2	1.8
> Cc1cccc(-n2nnc(-c3nc(-c4cccs4)no3)c2N)c1
  1.1	.
> COc1ccc(OC)c(Nc2ncnc3c2cnn3C)c1
  1.4	.
> CN(C(=O)c1noc2c1COc1ccccc1-2)c1cccc(Cl)c1
  1	-0.37
> Cc1nnsc1C(=O)Nc1ccc(-c2cnco2)cc1
  .	-1.7
> Cc1csc2ncc(C(=O)Nc3ccc(S(N)(=O)=O)cc3)c(=O)n12
  .	-2.6
> O=C(CSc1nc2c(sc3ccccc32)c(=O)n1CCCN1CCOCC1)NC1CCCC1
  1.6	.
> Nc1ncc2c(n1)CC(c1cc(F)cc(F)c1)CC2=O (stereo not drawn)
  1.2	0.86
> Cc1noc2ncnc(N3CCCC(C(=O)NCCCN4CCCCC4)C3)c12 (stereo not drawn)
  2.2	.
> O=C(O)c1ccccc1Nc1cccc(C(F)(F)F)c1
  9	.
> CCN(CC)c1ccc(NS(=O)(=O)c2ccc(CN3C(=O)c4cccnc4C3=O)s2)c(C)c1
  -0.43	.
> O=C(Nc1cc(F)ccc1F)c1cnc2sc(N3CCCC3)nn2c1=O
  -0.71	.
